Vif A3G: inhibitors of Vif binding to APOBEC3G peptide, primary screen, biochemical, TR-FRET, GST-Vif 1-94, biotin-A3G peptide, dose response retest (AID 1117319); TR-FRET GST-Vif / biotin-A3G peptide binding; higher % means a stronger effect; test concentration not given here; strong numbers were not always called active; inhibition, %; hits with a dose series show IC50 in µM; hit rate 0.57% among 260,000;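 active = above the screen mean plus three standard deviations and confirmed in dose response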;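 also: Vif residues 1-94 fused to GST binding biotinylated APOBEC3G peptide 110-148; 0% = full assay without inhibitor and 100% = GST in place of GST-Vif; retest series ran down from 100 µM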
AF4-AF9 inh: inhibitors of AF4 peptide binding to AF9, primary screen, biochemical, AlphaScreen, biotin-AF4 peptide, FLAG-AF9, single point; Protein AF-9 (Homo sapiens), P42568; hit rate 0.47% among 350,000; inhibition, % at 10 µM;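 active = every replicate reaching a set inhibition limit, whatever the replicate mean, cut at about 25% in these data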;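 also: 0% = plate neutral control median and 100% = total signal loss; the record names both 10 and 1 µM as test concentration; the first replicate is given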
E coli growth: E. coli growth inhibition, primary screen, OD600; Escherichia coli growth, 23 h; hits give low values; OD600 absorbance (test concentration not listed); hit rate 0.21% among 330,000; AID 1053175, 2014;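 active = OD600 absorbance below the run mean of sample wells minus 3.6 SD, in any replicate, cut at about 0.56 in these data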;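 also: stock transfer was 300 nL into about 60 µL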
rRNA inh HTS: reduced GFP signal of wild-type E. coli, primary screen, bacterial rRNA inhibitor project, GFP/RFP fluorescence, OD600, single point; E. coli WT GFP vs humanized-ribosome RFP mutants, 24 h; hits give low values; DMSO median 0, no signal -100; GFP signal change (wild-type ribosome), % (no concentration beside the values); hit rate 1.6% among 350,000; AID 720706, 2013;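 active = significant combined selectivity score with lowered wild-type GFP, culture density cut under 30%, mutant RFP and density less affected; inactive = any of these conditions unmet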; also: one replicate is shown; some compounds called inactive have numbers as strong as hits
ALR inh: inhibitors of human ALR sulfhydryl oxidase, primary screen, biochemical, H2O2 detection, HRP-luminol luminescence, single point. inhibition, % (no concentration beside the values). purified ALR, DTT oxidation. hit rate 3.8% among 290,000;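 active = mean and each replicate at 75% or more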;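 also: stock transfer was 7.5 nL into about 7.5 µL; 0% = neutral wells and 100% = wells with inactivated enzyme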
Target sequence (P55789 whole entry, looked up): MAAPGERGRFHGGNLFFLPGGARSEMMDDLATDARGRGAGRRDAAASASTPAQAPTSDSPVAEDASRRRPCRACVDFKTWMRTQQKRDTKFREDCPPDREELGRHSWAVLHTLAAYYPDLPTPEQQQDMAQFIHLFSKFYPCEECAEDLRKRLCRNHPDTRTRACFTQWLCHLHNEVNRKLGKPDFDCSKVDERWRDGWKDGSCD
FGF22 binding: binders of human FGF22 protein, primary screen, FGF22 synaptogenesis inhibitor project, biophysical, thermal shift, single point | Fibroblast growth factor 22 (Homo sapiens), Q9HCT0 | recombinant FGF22 thermal shift, SYPRO orange fluorescence; percent of sucrose octasulfate shift, DMSO zero | calls only at 9.99 µM | hit rate 1.5% among 340,000 | AID 651658, 2012;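 active = melting point raised past a set limit in the mean and every replicate; three in four hits are not shown here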
Target sequence (Q9HCT0 whole entry, looked up): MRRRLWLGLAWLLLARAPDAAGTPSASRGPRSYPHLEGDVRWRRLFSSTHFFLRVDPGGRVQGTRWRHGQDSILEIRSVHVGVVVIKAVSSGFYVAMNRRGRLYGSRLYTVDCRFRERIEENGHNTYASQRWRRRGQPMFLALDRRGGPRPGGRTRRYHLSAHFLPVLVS
HNF4A DNA FP: change in binding of human HNF4A to DNA, primary screen, biochemical, fluorescence polarization, FITC-DNA | 1 h | activity change, % at 10 µM | hit rate 0.3% among 360,000 | AID 1224865, 2016; in the data active = activity change above about 30%, passing the limit was not always enough;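 also: controls were the assay level and a saturating level of protein; the project sought stronger binding though the title names inhibitors; some compounds called inactive have numbers as strong as hits; positive values seem to mean higher polarization but the record does not say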
Target sequence (P41235 whole entry, looked up): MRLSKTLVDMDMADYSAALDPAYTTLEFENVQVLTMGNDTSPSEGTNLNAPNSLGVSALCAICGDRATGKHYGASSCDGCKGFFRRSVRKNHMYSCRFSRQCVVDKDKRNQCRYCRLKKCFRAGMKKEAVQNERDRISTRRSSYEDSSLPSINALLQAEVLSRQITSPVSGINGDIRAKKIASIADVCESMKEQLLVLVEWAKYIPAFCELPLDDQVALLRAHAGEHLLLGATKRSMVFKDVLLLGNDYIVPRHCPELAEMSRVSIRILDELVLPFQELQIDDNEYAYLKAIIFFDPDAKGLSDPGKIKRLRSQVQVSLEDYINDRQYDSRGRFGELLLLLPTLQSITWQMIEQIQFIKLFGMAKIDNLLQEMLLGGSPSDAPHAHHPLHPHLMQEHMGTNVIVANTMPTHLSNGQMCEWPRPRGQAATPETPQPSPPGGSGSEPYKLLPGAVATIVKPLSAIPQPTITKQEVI
rRNA inh HTS OD600: recorded beside rRNA inh HTS, whose call it bears; OD600 change, %; measured here: OD600 growth;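 optical density of the mix in the first replicate; 0 = DMSO median and -100 = no signal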
rRNA inh HTS RFP: further read-out of rRNA inh HTS, marked with its call; RFP signal change, %; measured here: RFP humanized mutant strains;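 first replicate; 0 = DMSO median and -100 = no signal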
An asterisk follows results filed as active; i = inactive; / = not tested or not shown. Some of the compounds tested (hit frequency here may not be typical).

smiles	Vif A3G	AF4-AF9 inh	E coli growth	rRNA inh HTS	rRNA inh HTS OD600	rRNA inh HTS RFP	ALR inh	FGF22 binding	HNF4A DNA FP
COc1cccc(C#Cc2cnc3c(c2)C(=O)N([C@@H](C)CO)C[C@H](C)[C@H](CN(C)C(C)=O)O3)c1	/	-2.8	/	6	20	-3.1	/	i	/
CC1(C(=O)O)CCC(C(=O)Nc2ccccc2)C1(C)C (centres undefined)	25%	/	0.7	/	/	/	-11	/	-1.7
C/C(=N/NS(=O)(=O)c1ccc(Cl)cc1)c1ccncc1	/	0.0	/	14	10	1.0	-12	i	2.4
O=C(CN1CCOCC1)NCCc1ccccc1	/	-5.8	0.62	6	10	-1.2	-17	i	0.7
COCC(COS(N)(=O)=O)Cc1ccccc1 (centres undefined)	/	-0.4	0.66	9	0	2.1	-3	i	-2.3
C[C@H]1CN([C@@H](C)CO)C(=O)c2cc(Br)cnc2O[C@H]1CN(C)CC1CCOCC1	/	2.9	/	3	9	0.2	/	i	/
N#CC(Cc1ccccc1)(Cc1ccccc1)C(=O)NN	/	-3.9	0.67	3	-4	-5.0	/	i	-0.2
C[C@@H]1CCCCO[C@H](CN(C)CC2CC2)[C@H](C)CN([C@H](C)CO)C(=O)c2cc(NC(=O)NC3CCCCC3)ccc2O1	/	14	/	4	8	2.2	/	i	/
C[C@H](CO)N1C[C@H](C)[C@H](CN(C)S(=O)(=O)c2ccccc2)Oc2ccc(NC(=O)Nc3ccc4c(c3)OCO4)cc2CC1=O	/	3.7	/	2	-4	1.7	/	i	/
O=C(C[C@H]1CC[C@H]2[C@@H](COC[C@H](O)CN2C(=O)Nc2ccccc2)O1)NCc1ccccc1F	/	-1.1	/	-2	-12	1.2	/	i	/
COC(=O)C[C@@H]1CC[C@@H]2[C@H](COc3ccc(NC(=O)Nc4ccc(C)cc4)cc3C(=O)N2C)O1	/	0.2	/	1	-6	1.5	/	i	/
CC1(C)CC(=O)C(C=Nc2ccccc2Sc2ccccc2)=C(O)C1	7%	/	0.78	/	/	/	6	/	-0.1
Cc1cccc(Cl)c1NC(=O)N1CCCN(c2nc3ccc(Cl)cc3s2)CC1	-4%	-0.7	0.61	13	5	2.2	-9	i	-1.2
Cn1cc(CN2CCC(C(=O)NC(c3ccc(F)cc3)c3ccc4ccccc4n3)CC2)c2ccccc21 (centres undefined)	/	25*	/	-44	-68	-5.9	/	i	2.4
COCC(=O)N1[C@@H]2Cn3c(ccc(/C=C/c4ccccc4)c3=O)[C@H]1[C@@H](C(=O)N1CCOCC1)[C@@H]2CO	/	2.6	/	0	3	0.0	/	i	/
CCN1CCN(C(=S)Nc2cc(C(=O)OC)ccc2C(=O)OC)CC1	-22%	-19	0.67	6	11	2.4	-1	i	4.3
CCOc1ccc(S(=O)(=O)NCc2ccc(Cl)cc2)c2cccnc12	/	-5.5	0.71	-9	-6	-6.7	-7	i	4.2
CCN(CC)C(=O)Cn1cc(S(=O)(=O)Cc2cccc([N+](=O)[O-])c2)c2ccccc21	/	-2.1	0.65	13	7	-0.4	-11	i	4.2
COC(=O)c1ccc(C(=O)OC)c(NC(=O)C2CCCO2)c1 (centres undefined)	/	-3.9	0.69	10	-1	0.2	-5	/	-2.7
COCC(=O)N(C)C[C@H]1Oc2ncc(-c3ccc(C)cc3)cc2C(=O)N([C@@H](C)CO)C[C@H]1C	/	-0.7	/	-1	-3	-1.2	/	i	/

Exported with values under each structure: entries from further up
Values in the order: Vif A3G, AF4-AF9 inh, E coli growth, rRNA inh HTS, rRNA inh HTS OD600, rRNA inh HTS RFP, ALR inh, FGF22 binding, HNF4A DNA FP
COCC(=O)N1[C@@H]2Cn3c(ccc(/C=C/c4ccccc4)c3=O)[C@H]1[C@@H](C(=O)N1CCOCC1)[C@@H]2CO
→ /, 2.6, /, 0, 3, 0.0, /, i, /
CCN1CCN(C(=S)Nc2cc(C(=O)OC)ccc2C(=O)OC)CC1
→ -22%, -19, 0.67, 6, 11, 2.4, -1, i, 4.3
CCOc1ccc(S(=O)(=O)NCc2ccc(Cl)cc2)c2cccnc12
→ /, -5.5, 0.71, -9, -6, -6.7, -7, i, 4.2
CCN(CC)C(=O)Cn1cc(S(=O)(=O)Cc2cccc([N+](=O)[O-])c2)c2ccccc21
→ /, -2.1, 0.65, 13, 7, -0.4, -11, i, 4.2
COC(=O)c1ccc(C(=O)OC)c(NC(=O)C2CCCO2)c1 (centres undefined)
→ /, -3.9, 0.69, 10, -1, 0.2, -5, /, -2.7

New compounds follow.
Molecule | Vif A3G | AF4-AF9 inh | E coli growth | rRNA inh HTS | rRNA inh HTS OD600 | rRNA inh HTS RFP | ALR inh | FGF22 binding | HNF4A DNA FP
Cc1c(C)c2c(OCC(=O)N[C@@H](CC(C)C)C(=O)O)cc3c(c2oc1=O)CCC(C)(C)O3 | 7% | -1.2 | 0.66 | -10 | -6 | -1.0 | 4 | i | -1.1
CC(=O)Nc1sc(NC(=O)c2ccc([N+](=O)[O-])cc2)nc1-c1cccs1 | / | 0.2 | 0.61 | -4 | 27 | -5.4 | / | i | -5.4
CC1CC(C)CN(CCCNC(=O)c2ccc(N3CCCC3=O)cc2)C1 (centres undefined) | -1% | -0.5 | 0.73 | 10 | 17 | -0.1 | -12 | i | 2.9
O=C1CCN(S(=O)(=O)c2ccc(Br)cc2)CCN1 | 2% | -2.5 | 0.71 | -2 | 4 | -1.4 | -44 | i | -2.4
Cc1cc(C)nc(SCCC(=O)Nc2cccc3ccccc23)n1 | -11% | / | 0.69 | / | / | / | -21 | / | -0.2
Cc1noc(C)c1NC(=O)N[C@H]1CC[C@@H](CCNC(=O)C2CCCC2)O[C@@H]1CO | / | -1.6 | / | 1 | 0 | -0.9 | / | i | /
COCC(=O)Nc1ccc2c(c1)C(=O)N(C)C[C@@H](OC)[C@@H](C)CN(C(=O)Cc1ccccn1)[C@H](C)CO2 | / | 0.4 | / | 5 | 3 | 2.7 | / | i | /
Cc1noc(C)c1S(=O)(=O)Nc1ccc2c(c1)C(=O)N([C@@H](C)CO)C[C@@H](C)[C@@H](CN(C)C(=O)NC(C)C)OCCCC[C@H](C)O2 | / | -0.2 | / | -1 | -1 | -3.2 | / | i | /
CCC(=O)N1CCN(c2nc3ccccc3s2)CC1 | 0% | / | 0.74 | / | / | / | 49 | / | 0.3
Clc1ccc(-c2nnc(CSc3nnc(-c4cccs4)o3)o2)cc1 | -11% | / | 0.81 | / | / | / | -1 | / | -0.4
CN1CCN(C(=O)/C(=C/c2cn(S(=O)(=O)N(C)C)c3ccccc23)NC(=O)c2ccccc2)CC1 | / | 4.0 | 0.71 | -1 | -9 | -0.1 | -1 | i | 3.0
CC(NC(=O)CN1C(=O)NC2(CCCCC2)C1=O)c1ccc(S(N)(=O)=O)cc1 (centres undefined) | -11% | -15 | 0.68 | 8 | 16 | -0.2 | / | i | 4.9
COc1cccc(NC(=O)CN(C)CC(=O)NCc2ccc(F)cc2)c1 | -5% | -0.8 | 0.71 | -8 | -13 | -0.8 | -7 | / | 0.7
CCCN1CCC(NC(=O)Cc2ccccc2C)CC1 | / | 2.7 | 0.71 | 18 | 11 | 2.6 | -4 | i | 2.1
CC(C)CCN(CCC(C)C)CC(O)Cn1c2ccccc2c(=O)c2ccccc21 (centres undefined) | -10% | -4.2 | 0.66 | / | / | / | -7 | i | 2.1
O=C(C[C@@H]1C[C@H]2c3cc(NC(=O)NC4CCCC4)ccc3O[C@H]2[C@H](CO)O1)NCCc1ccccc1 | / | 0.8 | / | -1 | 1 | 2.8 | / | i | /
CNC(=O)C1CC(=O)N(CCc2ccc(OC)c(OC)c2)C(=Nc2ccc(F)cc2)S1 (centres undefined) | -6% | 1.8 | 0.71 | -16 | -11 | -4.3 | -26 | i | -0.1
Cc1ccccc1S(=O)(=O)N1[C@@H](c2cccc(Cl)c2)C(C(=O)OC(C)(C)C)=CC[C@H]1c1ccc(Cl)cc1 | / | 0.3 | / | 2 | 13 | 3.1 | / | i | 3.3
c1ccc(CSc2nc3ccccc3[nH]2)cc1 | 5% | -2.6 | 0.69 | -22* | -9.7* | 0.9* | -6 | i | 2.8
CC(C)(C)c1ccc(OCC(=O)NCCN2CCOCC2)cc1 | / | -1.1 | 0.69 | -4 | -1 | -3.2 | -9 | i | 2.5
COc1ccc(CCNS(=O)(=O)c2cc3c4c(c2)CCN4C(=O)CC3)cc1OC | -5% | -0.3 | 0.7 | 3 | -1 | -1.1 | / | / | -1.8
CCCS(=O)(=O)Nc1cccc(-c2nc3cccnc3s2)c1 | 0% | -12 | 0.69 | -11 | -7 | -8.0 | -11 | i | 1.9
CC(=O)N1[C@H](CO)[C@H](c2ccccc2)C12CN(C(=O)Nc1ccccc1F)C2 | / | -0.3 | / | 2 | 6 | -2.1 | / | i | /
COc1ccc(NC(=O)CC(c2ccccc2)c2ccco2)cc1 (centres undefined) | 1% | -3.9 | 0.68 | -9 | 2 | 2.9 | / | i | 2.2
COCCNC(=O)CN(C(=O)c1ccc(N2CCCC2)nc1)c1ccccc1 | / | 2.9 | 0.6 | 6 | 4 | 1.1 | 10 | / | -4.1
O=C(NC(=O)c1ccc(F)cc1)Nc1nc(-c2cccs2)cc(C(F)(F)F)n1 | -9% | 1.7 | 0.72 | 8 | 9 | 0.3 | -9 | i | -4.1
CCCC(=O)Nc1cc(C)c(NC(=O)c2ccncc2)cn1 | 4% | / | 0.69 | / | / | / | -12 | / | 0.5
C[C@H]1CCC(=O)N([C@H](CC#N)Cc2ccccc2)CC1 | / | 11 | / | 14 | 10 | -0.8 | -4 | i | 1.6
CCOC(=O)c1ccccc1NC(=O)Cn1cnc2c(cnn2-c2ccc(F)cc2)c1=O | 0% | / | 0.76 | / | / | / | / | / | -2.4
O=C(C1CC(c2ccc(F)cc2)=NO1)N1CCc2ccccc2C1 (centres undefined) | -3% | 4.8 | 0.75 | -4 | -10 | -1.8 | 27 | i | 4.5
COc1ccccc1C#Cc1ccc2c(c1)O[C@@H](CN(C)C)[C@H](C)CN([C@H](C)CO)S2(=O)=O | / | 10 | / | -3 | -14 | 14 | / | i | /
O=C(O)c1cccc2c1C(=O)c1ccc(Cl)cc1S2(=O)=O | / | 1.7 | / | 2 | 10 | 3.3 | -5 | i | 0.5
O=C(Cc1nnc(NC(=O)c2ccccc2)s1)N/N=C/c1cccc(O)c1 | / | 0.4 | / | -3 | 8 | -4.5 | -1 | i | 2.1

Compound activity (PubChem BioAssay)
